Assay outcomes: PubChem, SRMLSC
HSV replic up = increases HSV replication in cells; 220,000 compounds, 0.005% hits; maximum fold increase; HSV replication augmentation in cells, fold increase;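 active means peak rise of 1.5-fold or more in the series; tested in PC3 cells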;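 further: first round at 10 µM; read as green reporter fluorescence; hits show the peak of a series up to 25 µM; 1 = signal of infected wells without compound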
HSV replic up primary fold = also measured in HSV replic up; calls as there; fold increase; compound at 10 µM; measured here: primary screen fold increase 10 uM; tested in PC3 cells;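 GFP signal in the first replicate; 1 = infected wells without compound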
An asterisk follows results filed as active; i = inactive. The list is partial; count on the stated rates, not on these rows.

SMILES	HSV replic up	HSV replic up primary fold
COc1ccc(CN2CC[C@H]3C=CC[C@@H](C(=O)Nc4ccc(Cl)c(C(F)(F)F)c4)[C@H]3C2=O)cc1OC	i	0.93
CCOc1cc(C(=O)N2CCC(CC3CC(c4ccccc4)=NO3)(C(=O)NCc3ccc(OC)cc3)CC2)cc(OCC)c1OCC (stereo not drawn)	i	0.74
COc1ccc(Nc2nc(N3CCCC3)nc(N3CCOCC3)n2)cc1	i	0.99
C#CCNC(=O)C1=C[C@H](C(C)(C)C)C[C@H](OCCCCO)O1	i	0.52
CC1(C)CC(=O)C(C=NCCN2CCN(C(=O)C34CC5CC(CC(C5)C3)C4)CC2)=C(O)C1	i	0.97
NCCCCCCNS(=O)(=O)c1cccc2c(Cl)cccc12	i	1.1
O=C(NC1CCCCC1)[C@@H]1CC=C[C@@H]2CCN(C3CCCCC3)C(=O)[C@@H]21	i	0.76
OCC[C@@H]1C[C@@H](O)[C@H](O)[C@]2(CCCO2)O1	i	0.91
c1ccc(Nc2nc(N3CCCC3)nc(N3CCOCC3)n2)cc1	i	0.85
COC(=O)C1=C(C(=O)OC)[C@@H]2N(Cc3ccccc3)c3ccccc3[C@@]23C[C@@H](C(=O)OC)N(C(=O)C2CCC2)C3=N1	i	0.84
COc1ccccc1CN1[C@@H](CC(C)=O)c2cc(C(F)(F)F)ccc2S1(=O)=O	i	0.81
CC1(OC(=O)c2cccs2)C(=O)C=C2C=C(C3CC3)OC=C2C1=O (stereo not drawn)	i	0.76
CC(C)(C)[C@@H]1C=C(C(N)=O)O[C@H](OCCCCO)C1	i	0.71
CCC[C@@H]1CCCO[C@@](C(=O)NCc2ccccn2)(C(F)(F)F)C1	i	0.95
C#CCOCCOCCOCCNc1nc(N2CCN(C(=O)C([C@@H](C)CC)n3cc(C(N)CO)nn3)CC2)nc(N2CCN(C(=O)C([C@@H](C)CC)n3cc(C(N)COC(=O)C(F)(F)F)nn3)CC2)n1 (stereo partly drawn)	i	0.97
COC(=O)C[C@H]1c2cc(C(F)(F)F)ccc2S(=O)(=O)N1C1CCCCC1	i	1.1
CCN1C(=O)c2cccc3c(N)ccc1c23	i	0.85
O=C(Nc1ccccc1)c1ccc(F)cc1F	i	0.73
O=C(NCCN1CCOCC1)C1(C(F)(F)F)C/C(=C\Cc2ccccc2)CCCO1 (stereo not drawn)	i	0.9
CC(C)c1cn(C2OC(COC(=O)c3ccccc3)C(OC(=O)c3ccccc3)C2OC(=O)c2ccccc2)c(=O)[nH]c1=O (stereo not drawn)	i	0.9
O=C(O)C[C@H]1c2cc(F)ccc2S(=O)(=O)N1C1CCN(Cc2ccccc2)CC1	i	0.82
Cc1nc(Nc2ccc(Br)cc2Br)c([N+](=O)[O-])c(=O)[nH]1	i	0.9
CCCCCCCCN1[C@@H](CC(=O)O)c2cc(C(F)(F)F)ccc2S1(=O)=O	i	1
C[N+](C)(C)CCCCCC[N+](C)(C)C	i	0.93
COC(=O)C1=C(C(=O)OC)[C@@H]2N(C)c3ccccc3[C@@]23C[C@@H](CO)N(C(=O)c2cccs2)C3=N1	i	0.74
SMILES	HSV replic up	HSV replic up primary fold
CC1(c2nnc(-c3cccc(Cl)c3)o2)CC(c2ccc(Br)cc2)=NO1 (stereo not drawn)	i	0.77
N#Cc1c(NC(=O)CSc2nc3ccccc3c(=O)n2Cc2ccco2)sc2c1CCCC2	i	0.85
CC(=O)NCCc1c[nH]c2ccc(O)cc12	i	0.83
COC(=O)CCCC1=CC2=CC(=O)C(C)(OC(=O)c3cccs3)C(=O)C2=CO1 (stereo not drawn)	i	0.87
O=C(N[C@H](CO)[C@H](O)c1ccc([N+](=O)[O-])cc1)C(Cl)Cl	i	0.96
CC(Oc1ccccc1)C(=O)N1CCC2(CC1)Oc1ccc(F)cc1C(=O)C21CC(c2cccnc2)=NO1 (stereo not drawn)	i	0.51
O=C(O)C[C@H]1c2ccccc2S(=O)(=O)N1C1CCCC1	i	1
CCCN(CC1CC1)c1nc(C)nc(Nc2c(Cl)cc(Cl)cc2Cl)c1Cl	i	1.1
C=CC[C@]12C=C(OC)C(=O)C=C1O[C@@H](c1ccc3c(c1)OCO3)[C@H]2C	i	0.83
CCC/C=C1/CCCOC(C(=O)NCCN2CCOCC2)(C(F)(F)F)C1 (stereo not drawn)	i	0.95
C=C1CCN([C@@H](CC(C)C)C(=O)NCc2ccccc2)S(=O)(=O)c2ccccc21	i	0.86
CCCC[C@@H]1CN=C(N)N1CC(C)(C)C	i	0.94
CC1=C(C(=O)OCc2ccccc2)C(c2ccc(Br)cc2)NC(=O)N1CCCCCC(=O)O (stereo not drawn)	i	0.86
Cc1ccc(-c2nnc(CSc3nc(C)nc4sc(C)c(C)c34)o2)cc1	i	0.98
O=C1c2ccccc2S(=O)(=O)c2cc(C(=O)N3CCN(c4ccccc4)CC3)ccc21	i	0.9
O=C1C=C(O)c2c(O)cc(O)c(O)c2C1=O	i	0.99
Cc1ccc(Cn2c(C(C)Nc3nc(-c4ccc(Cl)c([N+](=O)[O-])c4)cs3)nc3cc(C(F)(F)F)ccc32)cc1 (stereo not drawn)	i	0.76
COc1[nH]c2ccc(F)cc2c1C(=O)OCC1CCN(CCNS(C)(=O)=O)CC1	i	0.82
C=C[C@@]1(C)CC(=O)[C@]2(O)[C@@]3(C)[C@@H](O)CCC(C)(C)[C@@H]3[C@H](O)[C@H](OC(C)=O)[C@@]2(C)O1	i	0.77
CCCCNC(=O)c1onc(CSc2cccc(OC)c2)c1C(=O)NCCCC	i	1
CCOc1ccc(NC(=O)c2c(N)n(C)c(=O)[nH]c2=O)cc1	i	0.87
COc1nc(-c2ccc3c(c2)OCO3)n(-c2ccc(NC(=O)CSc3ccccc3)cc2)n1	i	0.8
CC(C)(C)Nc1ncnc2c1cnn2-c1ccccc1	i	0.83
Cc1nc(-c2ccc(Cl)cc2)sc1C1(C)CC(c2ccccc2)=NO1 (stereo not drawn)	i	0.94
CCN1C(=O)N[C@@H](c2ccco2)C(C(C)=O)=C1C	i	0.92
SMILES	HSV replic up	HSV replic up primary fold
c1ccc(-n2nnc(-c3nccs3)n2)cc1	i	0.93
CCOC(=O)c1c(NC(=O)c2cccs2)sc2c1CCC2	i	1.1
CCn1c(NCCc2ccc(OC)c(OC)c2)nc2c1c(=O)n(C)c(=O)n2C	i	0.94
CCCNc1nc(-c2cc(C(=O)Nc3ccccc3)on2)cc(C(C)C)n1	i	0.88
Cc1nc(-c2ccc(Cl)cc2)sc1C1(C)CC(c2ccc(Cl)cc2)=NO1 (stereo not drawn)	i	0.8
CC(C)=CCc1cc(-c2oc3cc(O)cc(O)c3c(=O)c2O)ccc1O	i	0.84
CCOC(=O)c1ccc(NS(=O)(=O)c2c(N)n(C)c(=O)n(C)c2=O)cc1	i	1
C[C@H]1CC[C@@]2(O[C@H](CCO)C[C@H](O)[C@H]2O)O1	i	0.66
Cc1nc(N)c2c(Cc3cccc4ccccc34)nn(C(C)(C)C)c2n1	i	0.8
COc1ccc(-c2noc3c2-c2nc(-c4ccc(Br)cc4)sc2CC3)cc1	i	0.66
Nc1ccc(C#Cc2ccc3oc4ccccc4c(=O)c3c2)cc1	i	0.86
CCOc1ccc(C2C(C#N)=C(N)N3C(=C2C#N)Sc2ccccc23)cc1 (stereo not drawn)	i	1.2
COc1ccc(CN2CCN(c3cc(C)nc4c5c(C)cc(C)nc5nn34)CC2)cc1F	i	0.85
c1ccc2[nH]cnc2c1	i	0.82
COCCN1C(=O)N[C@@H](c2cccc(F)c2)C(C(C)=O)=C1C	i	0.73
C=C1/C(=C\C=C2/CCC[C@]3(C)[C@@H]([C@H](C)/C=C/[C@@H](O)C4CC4)CC[C@@H]23)C[C@@H](O)C[C@@H]1O	i	0.88
Nc1c(Cl)cc(-c2csc(N3CCCC3c3nc4cc(Cl)c(Cl)cc4n3CCCO)n2)cc1Cl (stereo not drawn)	i	0.97
COC(=O)C1=C(C)N(CCCC(=O)O)C(=O)NC1c1ccc(OC)cc1 (stereo not drawn)	i	0.83
COc1ccccc1CNC(=O)c1cc(-c2ccccc2)nn1CC1CC(c2cccc([N+](=O)[O-])c2)=NO1 (stereo not drawn)	i	0.66
O=C1NCC(=O)N2CCC[C@@H]12	i	1
CC[C@@H](C)CN1C(=O)N[C@@H](c2ccccc2)C(C(C)=O)=C1C	i	0.75
COC(=O)CCC(=O)OC1(C)C(=O)C2=CN(CCc3c[nH]c4ccccc34)C(c3ccc(OC)cc3)=CC2=C(Br)C1=O (stereo not drawn)	i	1
COCCN1C(=O)N[C@@H](c2cccc(C(F)(F)F)c2)[C@@H](C(=O)OC)[C@H]1C	i	0.77
COc1cc(-c2ccc3oc(-c4ccsc4)c(C#CC4(O)CCCCC4)c3c2)cc(OC)c1OC	i	0.83
COc1ccc(C2=NOC(C)(c3nnc(-c4ccncc4)o3)C2)cc1 (stereo not drawn)	i	1.1
SMILES	HSV replic up	HSV replic up primary fold
COc1ccc(OC)c(NC(=O)c2ccccc2OC(C)=O)c1	i	0.97
CC1=CC(c2ccccc2)n2ncnc2N1 (stereo not drawn)	i	0.98
CC(C)CC(CO)N1CCN(C(=O)c2ccccc2)CCC1=O (stereo not drawn)	i	0.68
N#C[C@H]1C(O)C(O)c2ccccc2N1C(=O)c1ccccc1 (stereo partly drawn)	i	0.97
Cc1cc(C)nc(N2CCN(c3ncnc4c3cnn4Cc3ccc(Cl)cc3Cl)CC2)n1	i	1
O=c1c2c3nc4ccccc4nc3n(/N=C/c3ccco3)c2ncn1CCC1=CCCCC1	i	0.95
Cc1cc(NC(=O)Nc2ccc3c(ccn3C)c2)sn1	i	0.84
O=C(NCCOc1ccccc1)C1Nc2ccc(C(F)(F)F)cc2C2c3ccccc3CC12 (stereo not drawn)	i	0.77
Cc1ccc(-n2nnc(-c3cccnc3)n2)cc1	i	0.77
Cc1nc(C(=O)Nc2ccc(Cl)cc2)sc1C1(C)CC(c2cccc([N+](=O)[O-])c2)=NO1 (stereo not drawn)	i	0.99
O=C(c1ccc(OCCN2CCCCC2)cc1)c1c(-c2ccc(O)cc2)sc2cc(O)ccc12	i	0.8
CN[C@H](CC(=O)O)C(=O)O	i	0.84
O=C1N[C@H](C(=O)O)CS1	i	0.91
CCN1C(=O)N[C@@H](CCc2ccccc2)[C@H](C(=O)OC)[C@H]1C	i	0.93
Cc1ccc(Cn2c(C3CCCN3c3nc(-c4ccc(F)cc4)cs3)nc3cc(C(F)(F)F)ccc32)cc1 (stereo not drawn)	i	0.83
CC#CCN1C(=O)N[C@@H](c2ccccc2)C(C(=O)OC)=C1C	i	0.92
Cc1csc2ncc(C(=O)Nc3ccccc3F)c(=O)n12	i	0.81
Cn1c(=O)c2[nH]c(-c3ccc(S(=O)(=O)O)cc3)nc2n(C)c1=O	i	0.99
C=CC[C@@]12C=C(OC)C(=O)C(OC)=C1O[C@H](c1ccc3c(c1)OCO3)[C@H]2C	i	1.1
O=C1c2ccccc2S(=O)(=O)c2cc(N3CCc4ccccc4C3)ccc21	i	0.83
C=CCNc1cccc(Br)c1	i	0.89
O=[N+]([O-])c1cc(-c2csc(NCCc3nc4cc(Cl)c(Cl)cc4n3CCCO)n2)ccc1Cl	i	0.79
CN1CCN(CC(=O)N2c3ccc(S(=O)(=O)NCCNC(=O)OC(C)(C)C)cc3C(=O)Nc3cccnc32)CC1	i	1.4
COc1cc2oc3ccc(C#Cc4ccccn4)cc3c(=O)c2cc1OC	i	0.69
C#CCOCCOCCOCCNc1nc(N2CCN(C(=O)C([C@@H](C)CC)n3cc(C(N)CC(C)C)nn3)CC2)nc(N2CCN(C(=O)[C@H](CCCCN)n3cc(C(N)COC(=O)C(F)(F)F)nn3)CC2)n1 (stereo partly drawn)	i	0.67
SMILES	HSV replic up	HSV replic up primary fold
O=C(NC1CCCC1)c1ccc2c(c1)S(=O)(=O)c1ccccc1C2=O	i	0.74
CCCNC(=O)c1onc(CSc2ccc(F)c(F)c2)c1C(=O)NCCC	i	0.98
C[N+]1(C)CCCC(OC(=O)C(O)(c2ccccc2)c2ccccc2)C1 (stereo not drawn)	i	1
CC(=O)OC1CCC2(C)C(CCC3C2CC(OC(C)=O)C2(C)C3C[C@@H]3O[C@]4(CC[C@@H](C)CO4)[C@@H](C)C32)C1 (stereo partly drawn)	i	0.8
CC1(C)CC(=O)C=C(c2cccs2)C1	i	0.75
Cc1cccc(-c2oc3ccc(-c4ccc5c(c4)OCO5)cc3c2-c2ccc(OC3CCCCO3)cc2)c1 (stereo not drawn)	i	0.94
O=c1c2c([nH]c3ccc(Br)cc13)CCCC2	i	0.99
O=C(NCc1cccc(Br)c1)C1CC2Cn3c(nc4ccccc43)C2N1Cc1ccccc1 (stereo not drawn)	i	0.84

Exported with bars between the fields: five of the compounds above.
SMILES | HSV replic up | HSV replic up primary fold
Cc1csc2ncc(C(=O)Nc3ccccc3F)c(=O)n12 | i | 0.81
Cn1c(=O)c2[nH]c(-c3ccc(S(=O)(=O)O)cc3)nc2n(C)c1=O | i | 0.99
C=CC[C@@]12C=C(OC)C(=O)C(OC)=C1O[C@H](c1ccc3c(c1)OCO3)[C@H]2C | i | 1.1
O=C1c2ccccc2S(=O)(=O)c2cc(N3CCc4ccccc4C3)ccc21 | i | 0.83
C=CCNc1cccc(Br)c1 | i | 0.89

One compound at a time (already shown). Order of values: HSV replic up, HSV replic up primary fold
CCCNC(=O)c1onc(CSc2ccc(F)c(F)c2)c1C(=O)NCCC reads i, 0.98
CC(=O)OC1CCC2(C)C(CCC3C2CC(OC(C)=O)C2(C)C3C[C@@H]3O[C@]4(CC[C@@H](C)CO4)[C@@H](C)C32)C1 (stereo partly drawn) reads i, 0.8
C[N+]1(C)CCCC(OC(=O)C(O)(c2ccccc2)c2ccccc2)C1 (stereo not drawn) reads i, 1
Cc1cccc(-c2oc3ccc(-c4ccc5c(c4)OCO5)cc3c2-c2ccc(OC3CCCCO3)cc2)c1 (stereo not drawn) reads i, 0.94
O=C(NC1CCCC1)c1ccc2c(c1)S(=O)(=O)c1ccccc1C2=O reads i, 0.74
